Menin-MLL FL inh: displaces fluorescein MLL peptide from human menin; 290,000 tested, under 10 active; FP activity change, % at 61.4 µM; Fluorescence polarization, fluorescein-MLL peptide displacement from menin; inconclusive = falling polarisation curve, or a change in total fluorescence; inactive = total fluorescence flat and polarisation flat or rising; no compound was filed as active; the % refers to the polarisation; negative = inhibition;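 further: % of control where 0% means no effect; inhibitors lower the polarisation; unlabelled MLL peptide was the positive control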
gsp antag: antagonists of gsp mutant (McCune-Albright syndrome). gsp-mutant cells, cAMP HTRF, 30 min; control for the full effect not named in the record. Potency, µM (titrated, usually from 76.9 µM), for inactives: top-dose activity change, negative = inhibition, actives largely listed as inhibitors. 340,000 compounds, 0.4% hits. AID 624288; active = falling curve of any shape with a large fitted effect; inconclusive = falling curve, mostly with a smaller effect; inactive = flat or rising curve; cell line not stated here;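 further: intracellular cAMP measured with PDE inhibitor Ro 20-1724 present during compound exposure; potency means the concentration at half of the fitted maximal effect; on the % scale 0 is the no-effect control and ±100 the full control effect; nearly all actives have a fitted effect of over 65% in size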
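HTRF cAMP measurement after 30 min RT detection following 30 min, 37C compound treatment alongside […] (added as 300 uM solution) in G418-selected cells seeded at 2000/well and grown 16–24 h.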
gsp ag: activates gsp, the McCune-Albright syndrome mutation. Potency, µM (titrated, usually from 76.9 µM), for inactives: at the highest dose activation (cAMP increase), actives largely listed as activators. 340,000 compounds, 0.13% hits. gsp mutant cells, cAMP HTRF, 30 min; control for the full effect not named in the record; active = well fitted activation curve with a large enough effect; inconclusive = small, poorly fitted or top-dose-only effect, or another doubt; inactive = no such curve, though single readings can be large or run the other way; cell line not stated here;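 further: phosphodiesterase inhibitor Ro 20-1724 added with compounds to block cAMP breakdown; potency means the concentration at half of the fitted maximal effect; nearly all actives have a fitted effect of over 60% in size; about a fifth of the inactives were tested at one dose only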
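Cells in DMEM/10% FBS with G418 were pretreated with compounds in DMSO plus […] (300 uM stock) for 30 min at 37C. cAMP was measured by HTRF (cAMP-d2 plus anti-cAMP antibody-K) after 30 min at room temperature.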
TRPML1 inh: inhibitors of human TRPML1 channel. Q9GZU1. TRPML1-inducible cells, Ca2+ dye fluorescence, FDSS; stronger effect = lower value; inhibition of EC80 agonist-evoked calcium signal. activity change, negative = inhibition, % (test concentration not listed). 390,000 compounds, 0.02% hits; in the data active means activity change below about -50%; inconclusive means about -30% to -50%; inactive means above about -30%;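 further: stimulus is agonist 54-4 at its EC80 concentration; on the % scale 0 is the no-effect control and ±100 the full control effect; compound concentration not given in the record; the text of the record puts the active cut at -80%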
Target sequence (Q9GZU1 whole entry, looked up): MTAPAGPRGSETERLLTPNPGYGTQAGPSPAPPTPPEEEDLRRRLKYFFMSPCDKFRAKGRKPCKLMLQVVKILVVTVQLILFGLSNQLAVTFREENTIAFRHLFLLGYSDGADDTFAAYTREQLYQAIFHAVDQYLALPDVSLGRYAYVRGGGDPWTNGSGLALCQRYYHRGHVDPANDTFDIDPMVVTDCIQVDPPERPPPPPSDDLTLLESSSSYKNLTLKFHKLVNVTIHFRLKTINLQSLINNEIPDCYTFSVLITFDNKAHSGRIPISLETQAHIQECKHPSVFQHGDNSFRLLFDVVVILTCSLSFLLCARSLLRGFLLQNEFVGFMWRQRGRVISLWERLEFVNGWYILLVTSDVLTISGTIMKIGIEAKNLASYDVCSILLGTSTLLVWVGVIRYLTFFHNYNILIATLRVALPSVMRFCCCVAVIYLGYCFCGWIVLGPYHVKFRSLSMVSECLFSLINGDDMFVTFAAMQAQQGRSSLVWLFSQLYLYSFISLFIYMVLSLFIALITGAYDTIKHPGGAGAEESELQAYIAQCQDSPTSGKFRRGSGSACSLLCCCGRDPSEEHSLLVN
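TRPML1-DL cells, Tet-induced overnight (~16 h, 37 °C) at 1,500 cells/well, were loaded with Ca8 no-wash dye plus quencher for 45-90 min at room temperature. Compounds were pinned during FDSS kinetic reading; agonist 54-4 at EC80 (4 uM final) then added.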
TRPML1 ag: agonists of human TRPML1 channel. AID 624414. 410,000 compounds, 0.12% hits. Q9GZU1. activation, % (no concentration beside the values). TRPML1-expressing cells, Ca2+ dye fluorescence, FDSS; host cell line not named in the record; reference of the full effect not given here; in the data active = activation above about 50%; inconclusive = about 30% to 50%; inactive = below about 30%; further: 0% is about no effect; the text of the record puts the active cut at 80%
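Kinetic FDSS Ca2+ read in Tet-induced TRPML1-DL cells (ABD Ca8 dye plus quencher, 45-90 min RT loading): baseline, then compound, then 110 s agonist window; EC80 agonist 54-4 at 4uM final added afterwards for a 110 s antagonist window.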
ClpP mod: qHTS Assay for Activators of ClpP. ATP-dependent Clp protease proteolytic subunit (Bacillus subtilis (strain 168)), P80244. purified B. subtilis ClpP, FRET peptide cleavage, 20 min. Potency, µM (series often up to 57.5 µM), inactives show top-dose activity change, negative = active. 340,000 compounds, 1.9% hits. AID 651965, 2013; active = well fitted falling curve with a large enough effect; inconclusive = small, poorly fitted or top-dose-only effect; inactive = no such curve, though single readings can be large or run the other way; further: potency means the concentration at half of the fitted maximal effect; the source files actives as falling curves though it sought activators and does not explain the sign; nearly all actives have a fitted effect of over 65% in size; many hits overshoot -100%
Target sequence (P80244 whole entry, looked up): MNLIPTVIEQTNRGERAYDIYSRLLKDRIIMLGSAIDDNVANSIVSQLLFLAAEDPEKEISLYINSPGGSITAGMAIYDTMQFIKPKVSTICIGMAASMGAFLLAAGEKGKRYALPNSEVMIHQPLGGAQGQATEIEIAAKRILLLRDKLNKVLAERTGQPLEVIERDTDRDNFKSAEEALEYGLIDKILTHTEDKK
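Buffer: 100 mM Tris/HCl pH8, 100 mM KCl, 0.05% low protease BSA, 2.5% glycerol, 0.01% Tween-20. ClpP 10 microg/mL final; 20 min RT; delta FRET normalized to ADEP and DMSO controls.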
* hit, by the source's call; ? = inconclusive; . = no result given; & = joins results of further samples; [ ] = dose if it differs, or a comment.

SMILES	Menin-MLL FL inh	gsp antag	gsp ag	TRPML1 inh	TRPML1 ag	ClpP mod
O=C(COC(=O)c1ccc([N+](=O)[O-])s1)NC(c1ccccc1)c1ccccc1	6.0	9%	-3%[15.4 µM]	-9	-0.2	0.8%
Cc1ccc(OCc2cn3cccnc3n2)cc1	1.3	6%	22%	-19	0.8	-17%
O=C1NC(=S)S/C1=C/c1ccc(Oc2cnccn2)cc1	12	11µM*	1%[15.4 µM]	-8	1.8	.
COc1cccc(NC(=O)C(OC(=O)c2ccc([N+](=O)[O-])o2)c2ccccc2)c1 (centres undefined)	6.5	?	-37%[inhibitor]	7	0.8	-0.3%
Cc1cccc2cc(COC(=O)c3cccc([N+](=O)[O-])c3)c(=O)[nH]c12	4.1	-7%	-14%	8	0.3	-2.7%
Cc1ccc(S(=O)(=O)Nc2ccccc2C(=O)N2CCOCC2)cc1	-2.6	10%	?	-7	1.1	0.4%
COC(=O)c1cc(N=Nc2c(C)[nH]c3ccccc23)cc(C(=O)OC)c1	2.0	14%	25%	11	-0.1	-2.2%
O=C(CSCc1ccccc1Cl)Nc1ccc(C(=O)O)cc1	-1.4	4%	-9%[15.4 µM]	-7	0.5	-1.4%
Cc1ccc(NC(=O)CSc2nnc(C3CCCCC3)n2N)cc1F	1.2	3%	14%	76	1.8	-0.9%
COc1ccc2sc(C)cc(=O)c2c1	.	.	1%	-7	-0.7	4.3%
COc1ccc(N(Cc2cc3cc(OC)ccc3[nH]c2=O)C(=O)c2cccc(Cl)c2)cc1	.	.	.	16	-0.8	-17%
CC(=O)c1cc(F)ccc1OCC(=O)N1CCN(c2ccc(F)cc2)CC1	-0.8	-2%	-4%	14	0.2	-5.0%
Cc1cccc(N(CC(=O)NC2CCCC2)C(=O)CNC(=O)c2ccco2)c1C	-1.9	9%	20%	9	0.3	.
COc1ccc(/C=c2/sc3n(c2=O)NC2(c4ccccc4)N(C)C(=O)N(C)C2(c2ccccc2)N=3)cc1 (centres undefined)	0.1	3%	2%	-3	-0.4	-2.1%
COC(=O)c1cc(NC(=O)c2nccnc2C(=O)O)cc(C(=O)OC)c1	-0.8	9%	1%	21	-0.3	-11%
COCCCNC(=O)c1cc(-c2cccnc2)nc2ccc(S(=O)(=O)N3CCC(C)CC3)cc12	.	.	.	-1	1.7	-1.7%
Cc1ccc(S(=O)(=O)Nc2cccc(-c3cn4ccsc4n3)c2)cc1	0.2	-1%	11%	12	1.6	0.3%
CC(=O)Nc1cccc(NC(=O)CSc2nccn2Cc2ccc(F)cc2)c1	-0.4	-4%	-6%	-12	-0.2	2.1%
Cc1ccccc1CCNC(=O)c1ccc(Cn2c(=O)c3cccn3c3cccnc32)cc1	.	.	.	15	2.8	4.4%
c1ccc(CN2CCN(c3nc(-c4ccccn4)nc4ccccc34)CC2)cc1	1.6	1%	1%	-9	0.7	-0.8%
CCOC(=O)[C@H]1[C@H]2COc3ccc(Cl)cc3[C@@H]2N2C(=O)CNC(=O)[C@@]12C	.	4%	-7%	10	0.2	0.4%
CCCCN(C)C(=O)Cn1ncc2c3ccccc3n(CCC)c2c1=O	1.3	-1%	-2%[15.4 µM]	10	-1.7	1.5%
O=C(Nc1ccccc1N1CCCC1)C1CCN(C(=O)c2ccc(F)cc2)CC1	.	-16%	-14%	29	0.4	-0.1%
Cn1nnc2cc(NC(=O)N3CC4(C)CC3CC(C)(C)C4)ccc21 (centres undefined)	-0.8	-7%	1%	7	-0.4	-12%
COC(=O)CSc1nc2ccc(NC(=O)CSc3nnnn3Cc3ccccc3)cc2s1	1.6	?	28%	20	0.7	4.4%
Additional structures
SMILES	Menin-MLL FL inh	gsp antag	gsp ag	TRPML1 inh	TRPML1 ag	ClpP mod
CN(CCc1ccccc1)C(=O)c1cc(COc2ccc(F)cc2Cl)on1	.	-8%	?	35	0.8	0.1%
COc1ccc(C2CC(=O)C=C3c4ccc(OC)cc4CCC32)cc1 (centres undefined)	.	.	?	-19	0.2	-16%
Cc1cccc(NC(=O)c2ccc(NC(=O)CC3SC(N4CCCC4)=NC3=O)cc2)n1 (centres undefined)	.	19%	9%	10	-0.9	0.8%
Cc1c(Cl)cccc1NC(=O)CCS(=O)(=O)c1cccc2nsnc12	.	.	.	-4	0.7	0.4%
O=S(=O)(c1ccc(F)cc1)n1ccc(-c2cnc(-c3ccccc3)s2)n1	1.6	3%	-45%[inhibitor]	6	4.3	20µM*
COc1cccc(N2CCN(C(=O)c3cc4c(=O)n(Cc5ccccc5)ccc4nc3C)CC2)c1	12	-8%	0%	0&17	-0.8&-0.1	-12%&-19%
CCCC(=O)Nc1c2c(nn1-c1ccc(C)cc1C)CSC2	-1.2	-9%	-9%	1	0.9	-0.2%
O=S(=O)(Nc1ccccc1N1CCOCC1)c1ccc(Cl)s1	-0.7	-9%	-3%	-7	23	-2.5%
COc1ccc(CC(=O)NCC2CCCN(Cc3ccc(F)c(OC)c3)C2)cc1 (centres undefined)	2.5	12%	-3%	24	1.0	-3.3%
COc1ccccc1NC(C#N)c1ccccc1OCc1ccccc1 (centres undefined)	.	34%	-4%	-2	-0.2	-0.7%
CC(C)c1nc(SCC(=O)c2ccc(F)cc2)c2ccccc2n1	1.2	-13%	0%	29	3.2	-5.4%
Cc1cnc(C(=O)OCC(=O)N2CCN(S(=O)(=O)c3ccc(Cl)cc3)CC2)cn1	.	-18%	11%	-8	-0.2	0.8%
O=S(=O)(c1ccccc1)c1nnn2c1nc(NC1CCCCCC1)c1sccc12	.	.	.	-9	-0.1	-7.2%
CCOC(=O)c1c(C)[nH]c(C(=O)OCC(=O)NC(C)(C)C)c1C	0.1	-7%	2%	-19	-0.6	.
Cc1noc(C)c1C(=O)OCC(=O)Nc1ccc(C(N)=O)cc1	-4.8	17%	-5%[15.4 µM]	-11	-0.7	-1.0%
CCCCCCn1c(=O)n2n(c1=O)[C@@H]1CN(S(=O)(=O)c3ccc(C)cc3)C[C@]1(O)[C@@H](OC(=O)NCc1ccccc1F)C2	.	.	1%	8	-0.4	-1.6%
Cc1cccc(OCC(=O)Nc2nc3ccc([N+](=O)[O-])cc3s2)c1C	2.0	-7%	-3%	13	0.0	0.6%
O=C1CN(C(=O)c2ccc(S(=O)(=O)N3CCCC3)cc2)C(c2ccccc2)c2cc(Br)ccc2N1 (centres undefined)	.	.	.	20	0.2	1.9%
Cc1cccc(C)c1Nc1c(-c2ccc(Cl)s2)nc2ncccn12	.	.	.	54	2.9	-3.0%
COCc1cc(C)nc2c1C(=O)NC(c1ccc(C)cc1)N2Cc1ccccc1 (centres undefined)	.	.	.	-19	-0.5	4.4%
Cc1nc(Cl)cc(CS(=O)(=O)c2ccc(Cl)cc2)n1	-0.7	21%	-3%[15.4 µM]	0	-0.9	.
O=C(Nc1nc(-c2ccco2)c(-c2ccco2)s1)c1ccco1	.	-9%	-48%[inhibitor]	7	1.2	-3.7%
COc1cc(OC)c(NC(=O)/C=C/C(=O)O)cc1Cl	3.7	-6%	5%[15.4 µM]	-25	-0.2	.
O=C(/C=C/c1cccc([N+](=O)[O-])c1)NCCN1C(=O)S/C(=C\c2cccnc2)C1=O	4.0	-20%	?	-1	0.0	-2.4%
COC(=O)c1c(NC(=O)CSc2nc3nc(C)cc(C)n3n2)sc(C)c1C	1.0	-6%	25%	8	-0.2	.
Next results:
SMILES	Menin-MLL FL inh	gsp antag	gsp ag	TRPML1 inh	TRPML1 ag	ClpP mod
CCN(CC)c1ccc(NC(=O)c2ccc(S(=O)(=O)N3CCOCC3)cc2)cc1	.	-1%	16%[15.4 µM]	-8	0.6	0.8%
COC(=O)c1ccc(N2C(=O)CC(N3CCN(c4ccccc4)CC3)C2=O)cc1 (centres undefined)	.	5%	12%	-5	-0.6	1.1%
CC(C)CSc1nsc(N)n1	0.0	1%	-2%	-2	0.3	-1.3%
CCCCC(=O)Nc1ccc(C(=O)NCc2ccncc2)cc1	2.6	0%	0%	-2	-1.3	-4.4%
CCNC(=S)NNC(=O)c1cccn(Cc2ccc(Cl)cc2)c1=O	1.0	13%	-6%	9	0.0	99%
NC(=O)C1CC(=O)N(c2ccc(OCC(=O)Nc3ccc(F)cc3)cc2)C1 (centres undefined)	.	9%	13%	-4	-0.2	-2.6%
Cc1cc(Nc2ccccc2)nc(N)n1	2.2	5%	-3%	41	2.0	2.6%

Eleven of these compounds, reformatted:
Order of results – Menin-MLL FL inh	gsp antag	gsp ag	TRPML1 inh	TRPML1 ag	ClpP mod
CC(C)c1nc(SCC(=O)c2ccc(F)cc2)c2ccccc2n1
→ 1.2	-13%	0%	29	3.2	-5.4%
Cc1cnc(C(=O)OCC(=O)N2CCN(S(=O)(=O)c3ccc(Cl)cc3)CC2)cn1
→ .	-18%	11%	-8	-0.2	0.8%
O=S(=O)(c1ccccc1)c1nnn2c1nc(NC1CCCCCC1)c1sccc12
→ .	.	.	-9	-0.1	-7.2%
CCOC(=O)c1c(C)[nH]c(C(=O)OCC(=O)NC(C)(C)C)c1C
→ 0.1	-7%	2%	-19	-0.6	.
Cc1noc(C)c1C(=O)OCC(=O)Nc1ccc(C(N)=O)cc1
→ -4.8	17%	-5%[15.4 µM]	-11	-0.7	-1.0%
CCCCCCn1c(=O)n2n(c1=O)[C@@H]1CN(S(=O)(=O)c3ccc(C)cc3)C[C@]1(O)[C@@H](OC(=O)NCc1ccccc1F)C2
→ .	.	1%	8	-0.4	-1.6%
Cc1cccc(OCC(=O)Nc2nc3ccc([N+](=O)[O-])cc3s2)c1C
→ 2.0	-7%	-3%	13	0.0	0.6%
O=C1CN(C(=O)c2ccc(S(=O)(=O)N3CCCC3)cc2)C(c2ccccc2)c2cc(Br)ccc2N1 (centres undefined)
→ .	.	.	20	0.2	1.9%
Cc1cccc(C)c1Nc1c(-c2ccc(Cl)s2)nc2ncccn12
→ .	.	.	54	2.9	-3.0%
COCc1cc(C)nc2c1C(=O)NC(c1ccc(C)cc1)N2Cc1ccccc1 (centres undefined)
→ .	.	.	-19	-0.5	4.4%
Cc1nc(Cl)cc(CS(=O)(=O)c2ccc(Cl)cc2)n1
→ -0.7	21%	-3%[15.4 µM]	0	-0.9	.

Screening data from PubChem.
